Screening results from PubChem BioAssay.
Vaccinia mCherry: qHTS for Stage-Specific Inhibitors of Vaccinia Orthopoxvirus: mCherry Reporter Primary qHTS. 310,000 compounds, 0.63% hits. Vaccinia virus mCherry reporter infection, fluorescence; about a quarter of the inactives have no number. Potency, µM (top dose mostly 36.5 µM), inactives show at the top dose activity change, negative = inhibition, most hits filed as inhibitors; active = well fitted inhibition curve with a large enough effect; inconclusive = small, poorly fitted or top-dose-only effect; inactive = no such curve, though single readings can be large or run the other way; tested in A549 cells; note: nearly all actives have a fitted effect of over 35% in size; inactives centre near -10
VACV Venus inh: qHTS for Stage-Specific Inhibitors of Vaccinia Orthopoxvirus: Venus Reporter Primary qHTS; Vaccinia virus Venus reporter expression, fluorescence; AID 720580, 2013; 330,000 compounds, 0.46% hits; Potency, µM (highest dose often 36.5 µM), inactives show at the top dose activity change, negative = inhibition, hits mostly inhibitors; active means well fitted inhibition curve with a large enough effect; inconclusive means small, poorly fitted or top-dose-only effect; inactive means no such curve, though single readings can be large or run the other way; tested in A549 cells; note: nearly all actives have a fitted effect of over 30% in size; inactives centre near -10
An asterisk follows results filed as active; i = inactive; ? = inconclusive; / = not tested or not shown; & = joins results of further samples; [ ] = another dose, or the depositor's remark. % is set by controls: 0 for no effect and ±100 for the full control effect; potency is the fitted concentration of half-maximal effect.

Structure | Vaccinia mCherry | VACV Venus inh
Cc1ccc(S(=O)(=O)NCC(=O)OCC(=O)N(Cc2ccccc2)C(C)(C)C)cc1 | -13% | -7%
COc1ccc2c(c1OC)C(=O)OC2Nc1nc2ccccc2s1 (configuration not stated) | -13% | -8%
COc1ccc2[nH]cc(C(=O)CN(C)C)c2c1 | -1% | 8%
CCCCNC(=O)C1(C)CCN1C(=O)c1ccc(OC)c(F)c1 (configuration not stated) | 26% | 9%
CCOC(=O)c1sc(NC(=O)CSc2nc3cccnc3n2C)nc1C | -27% | 5%
O=C(O)c1cccc(NS(=O)(=O)c2cccc3cccnc23)c1 | i | -1%
CN(c1ccc(C(=O)N2CCN(Cc3ccc4c(c3)OCO4)CC2)cc1)S(C)(=O)=O | -6% | -11%
Cc1ccc(C(=O)Cn2cccn2)cc1 | i | 1%
CC(=O)c1[nH]c(C)c(C(C)=O)c1C | -15% | -13%
CC1CCCN(S(=O)(=O)c2ccc(C(=O)Nc3ccccc3-c3nc4ccccc4[nH]3)cc2)C1 (configuration not stated) | i | -9%
COc1ccc(N2CCN(c3ccc(C(N)=O)cc3[N+](=O)[O-])CC2)cc1 | ? | -21%
Cc1ccc(C(=O)N2CCN(S(=O)(=O)N3CCCCCC3)CC2)cc1 | -23% | -12%
CCC(C(=O)NC1CCCC1)N(C(=O)Cn1nnc(-c2ccc(C)o2)n1)c1cccc(O)c1 (configuration not stated) | -2% | -10%
COc1ccc(C(=O)N/N=C(\C)CC(=O)Nc2ccc3c(c2)OCCO3)c(OC)c1 | i | -4%
COc1ccc(/C=C2/SC(=O)N(CCC(=O)Nc3ccccc3C(=O)O)C2=S)cc1 | i | -9%

Compound profiles, from the list above:
`O=C(O)c1cccc(NS(=O)(=O)c2cccc3cccnc23)c1` across the screens: Vaccinia mCherry = i; VACV Venus inh = -1%
`COc1ccc2[nH]cc(C(=O)CN(C)C)c2c1` across the screens: Vaccinia mCherry = -1%; VACV Venus inh = 8%

Other records
Structure | Vaccinia mCherry | VACV Venus inh
Nc1c(N(CCC2=CCCCC2)C(=O)c2ccco2)c(=O)[nH]c(=O)n1Cc1ccccc1 | i | -19%
CC(=O)c1nnn(-c2nc(C#N)nc(N3CCOCC3)n2)c1C | 16% | -8%
Cc1ccc2ncccc2c1NS(=O)(=O)c1ccccc1 | -22% | -24%
CC(C)CCNC(=O)C1CCN(S(=O)(=O)c2ccc3c(c2)CC(C)N3C(=O)C2CCC2)CC1 (configuration not stated) | -12% | -24%
COc1ccc(-c2cc(C3CCN(c4ncccc4[N+](=O)[O-])CC3)[nH]n2)cc1 | ? | -24%
CCc1noc(C)c1C(=O)N(CC)CC(=O)NCc1ccc(F)cc1 | -8% | -11%
Cc1ccccc1C(=O)Nc1ccc2c(c1)OCO2 | / | -18%
CCc1cnc2c(c1SCC(=O)NCc1ccccc1Cl)c(=O)n(C)c(=O)n2C | -16% | -10%
COc1ccc(NC(=O)CCNC(=O)Cn2ccc3ccccc3c2=O)cc1OC | -20% | -10%
CN(C)S(=O)(=O)c1ccc(NC(=O)C2CCCN(C(=O)c3ccc(Cl)cc3)C2)cc1 (configuration not stated) | -10% | -27%
COCCNC(=O)C1(C)CCN(Cc2csc(-c3ccc(Cl)cc3)n2)C1 (configuration not stated) | 6% | 8%
C=CCN1C=C2C(=O)C(C)(OC(=O)CCc3ccccc3)C(=O)C=C2C=C1c1ccc(C#N)cc1 (configuration not stated) | 2% | -10%
Cc1ccccc1/C=N/Nc1nc2ccccc2[nH]1 | ? | -11%
O=C(N/N=C\c1cccnc1)c1ccc(Br)s1 | -17% | -4%
CC(O)(c1cccc(F)c1)c1nc(-c2ccc(Cl)cc2)cs1 (configuration not stated) | -10% | -10%
CCCSc1nnc(CSc2nc(C)cc(C)n2)n1C | -8% | -3%
CCOC(=O)C(CSCC(=O)c1ccc(Cl)cc1Cl)NC(=O)OC(C)(C)C (configuration not stated) | -11% | -9%
CC(=O)Nc1cccc(C(=O)NC(C)c2ccc(-n3ccnc3)cc2)c1 (configuration not stated) | 2% | 7%
CCc1ccc(NC(=S)N2CCC(NC(=O)c3ccccc3OC)CC2)cc1 | i | -21%
CCOC(=O)C1(C)CCN1C(=O)c1cccc(OC)c1 (configuration not stated) | 4% | -7%
CCOC(=O)c1ccccc1S(=O)(=O)N1CCN(c2nc(-c3cccs3)nc3ccccc23)CC1 | i | -10%
Cc1ccc(NC(=O)CNC(=O)Cn2c(C)cc3ccccc3c2=O)cc1F | -6% | 5%
NC(c1csc(Nc2cc(NCc3ccco3)ncn2)n1)c1ccccc1Cl (configuration not stated) | i | -20%
Cc1cccc(NC(=O)CSc2nc(=O)n3ccccc3n2)c1C | -4% | -10%
Cc1nc(NC(=O)c2ccccc2)sc1-c1cc(C(=O)NCCO)nn1Cc1ccccc1 | i | -7%
CCc1nc(SCC(=O)O)c(C#N)cc1C | -7% | -2%
CC(OC(=O)/C=C/c1ccccc1Cl)C(=O)NC1CCCCC1C (configuration not stated) | i | -4%
Cc1oc2c(c1C(=O)Nc1ccc(F)c(F)c1)C1=NCCN1C=N2 | -10% | 1%
Clc1cccc(C2CCN(Cc3nc(CC4CC4)no3)C2)c1 (configuration not stated) | i | -13%
Cn1nc(C(=O)NNC(=O)CCOc2ccc(C(C)(C)C)cc2)c2ccccc2c1=O | i | -12%

Additional results follow:
canonical_smiles,Vaccinia mCherry,VACV Venus inh
Cc1cc(C)c(NC(=O)Cc2csc(C)n2)c(Cl)c1,3%,-12%
COc1cccc2sc(=NC(=O)c3ccc(S(=O)(=O)N4CCCCC4)cc3)n(C)c12,-2%,-6%
Cc1ccc(S(=O)(=O)/N=c2\sccn2C)cc1,-13%,3%
COc1ccc(Cc2nnc(N=Nc3c(O)[nH]c4ccc(Br)cc34)[nH]c2=O)cc1,-10%,0%
COc1ccc(-c2[nH]nc3nc(N4CCN(C(=O)c5ccoc5)CC4)cc(C(F)(F)F)c23)cc1,-27%,?
CC(NC(=O)C(=O)N/N=C\c1ccc([N+](=O)[O-])cc1)c1ccccc1 (configuration not stated),-15%,-4%
Cc1nn(Cc2noc(C(=O)NCc3ccc(F)cc3)n2)c(C)c1Br,-3%,-7%&-7%
Nc1nnc(CCS(=O)(=O)c2ccc(Cl)cc2)s1,-8%,-7%
CCc1ccc(C(O)c2ncc(-c3ccccc3C(F)(F)F)[nH]2)cc1 (configuration not stated),16%,1%
Cc1ccc(-n2cccc2/C=N/n2cnnc2)cc1Cl,-15%,-18%
Cc1ccc(NC(=O)CSc2nccn2Cc2ccccc2)cc1C,/,-14%
O=C(CNC(=O)c1ccccc1F)NCCOc1cccc(Cl)c1Cl,-18%,-10%
COc1ccc(C(O)c2ncc(-c3cccc(OCc4ccccc4)c3)[nH]2)cc1F (configuration not stated),4%,-13%
Cc1ccc(NC(=O)CC2Sc3ccc(C(F)(F)F)cc3NC2=O)cc1 (configuration not stated),-7%,5%
CC(C)Oc1ccc(NC(=O)c2ccncc2)cc1,-23%,-15%
CCc1cccc2c(C(=O)COC(=O)c3ccc(O)cc3)c[nH]c12,-21%,-21%
COc1ccccc1OCC(=O)Nc1cc(C)ccc1NC(=O)c1ccco1,-12%,-5%
CCc1ccc(C(=O)c2c(N)c(-c3nc(-c4ccc5c(c4)OCO5)cs3)c3ccccn23)cc1,-6%[7.34 µM],-7%[7.34 µM]
Cc1c(NC(=O)COC(=O)COc2ccc(Nc3ccccc3)cc2)c(=O)n(-c2ccccc2)n1C,-18%,11%
COc1cc2c(cc1OC)CN(C(=S)Nc1ccc(OC(F)F)cc1)CC2,-3%,-4%
COc1ccc(N2CCN(C(=O)c3ccc(C)c(NC(=O)C4=C(C)OCCS4)c3)CC2)cc1,-25%[7.34 µM],-6%[7.34 µM]
CN(C)c1ccc(-c2nc3ccccc3n2C)cc1,-10%,-26%
CCCCNC(=O)c1ccc(NS(=O)(=O)c2ccccc2)cc1,-26%,-16%
O=C1c2ccccc2C(=O)c2cc(N3CCCCC3)ccc21,-14%,88%[activator]
Cc1nn(-c2ccccc2)c2nc(-c3ccco3)cc(C(=O)O)c12,1%,8%
COc1ccc(S(=O)(=O)NNC(=O)Nc2ccc(C)cc2C)c(OC)c1,-11%,-8%
Cc1ccsc1C(=O)N(CC(C)C)c1c(N)n(Cc2ccccc2)c(=O)[nH]c1=O,i,-5%
COC(=O)[C@]12CCCCC=C1N(CCc1ccc(OC)c(OC)c1)C(=O)[C@H](CC(=O)NCc1ccccc1)C2,19%,9%
O=C(NCc1ccccn1)Nc1ccc(F)cc1,-10%,0%
CCOc1ccc(CNC(=O)Cn2nc(C)c3c(C)n(-c4ccc(C)cc4)nc3c2=O)cc1,-9%&-27%,-11%&-20%
Cc1ccc(S(=O)(=O)NN2CCCCCC2)cc1,i,-8%
O=C(c1cccs1)N1CCOCC1,/,-1%
COCCN(C(=S)Nc1cc(C)ccc1C)C(C)c1cccnc1 (configuration not stated),-23%,-4%
COc1ccc(NC(=O)Nc2cccc(OC)c2)cc1,-2%,-18%
COc1ccccc1NC(=O)Cn1c2ccc(F)cc2c2nc3n(c(=O)c21)CCS3,21%,0%
O=C(c1ccc(OC2CCN(CCO)CC2)cc1)N1CCCC1,-9%,-9%
CCOC(=O)c1noc2ncnc(N(CCC(=O)OC)c3ccccc3)c12,-7%,-2%
Cc1c(Cl)cnc(NC(=O)COC(=O)CCS(=O)(=O)c2ccccc2)c1Cl,i,-5%
Cc1ccc2nc(NC(=O)/C=C/c3ccc4c(c3)OCO4)sc2c1,?,-16%
COCOCCn1cc(CN2CCS(=O)(=O)N(Cc3ccc(-c4ccc(OC)nc4)cc3)C(C(C)C)C2=O)nn1 (configuration not stated),-21%,-20%
C/C(=N\NC(=O)CCc1ccc(S(=O)(=O)N2CCOCC2)cc1)c1ccc(OC(F)F)cc1,-4%,5%
COc1ccccc1CCNC(=O)C1CCN(C(=O)/C=C/c2ccccc2)CC1,-12%,-24%
CCCc1c(C(=O)N/N=C(\CC)c2ccccc2)nnn1-c1nonc1N,-8%,-3%
COc1ccc(C(=O)NCCc2sc(-c3cccc(F)c3)nc2C)cc1,-8%,5%
CCCCCn1c(SCC(=O)OCC)nc2cc(C(=O)NCc3ccco3)ccc2c1=O,-6%,-8%
COc1cc(/C=N/Nc2snc(SC)c2C#N)cc(OC)c1OC,/,?
CCN(CC)c1cc(C)c2cc(NC(=O)c3ccc(F)cc3Cl)ccc2n1,-28%,-25%
Cc1ccc(CNC(=O)CCCCCn2c(=O)c3sccc3n(CC(=O)C(C)(C)C)c2=O)cc1,-16%,-16%
CC(C)NC(=O)CSc1nc(N)c(NC(=O)c2ccco2)c(=O)[nH]1,-4%,-5%
Cc1ccc(CN(CCO)CCO)cc1,i,11%
Cc1ccc2nc(Cl)c(/C=N/Nc3nc(C)cc(C)n3)c(=O)n2c1,-11%,-3%
CCOC(=O)[C@]12Cc3cc(Cl)ccc3[C@H]1N(CC(=O)OC)C(=O)c1ccccc12,?,?
CCOc1ccc(S(=O)(=O)Nc2nc3ccccc3nc2Nc2ccc(N3CCOCC3)cc2)cc1,-6%,-18%
Cc1cc(=O)oc2cc(OCC(=O)NCCN3CCOCC3)c(Cl)cc12,i,-1%
O=C(C1CCCCC1)N1Cc2ccccc2-n2nncc2C1,-9%,-20%
Cc1cc(C)n(C(C)CC(=O)Nc2ccc(C)c(F)c2)n1 (configuration not stated),-8%,-16%
O=C(Nc1ccc(S(=O)(=O)N2CCCCC2c2cccnc2)cc1)c1ccc(Br)cc1 (configuration not stated),?,-27%
CCOc1ccc(NC(=O)N2CC=C(c3c[nH]c4ccccc34)CC2)cc1,-8%,-21%
NNC(=O)CCCNc1ncc(C(F)(F)F)cc1Cl,-13%,16%
CCCCNC(=O)CSc1nc2cc3c(cc2c(=O)n1CCCCCC(=O)NCc1ccc2c(c1)OCO2)OCO3,-2%,-6%

New compounds follow
canonical_smiles,Vaccinia mCherry,VACV Venus inh
COc1cc(CN2CCNC(=O)C2CC(=O)NCCC2=CCCCC2)cc(OC)c1 (configuration not stated),i,-20%
CC1CCCC(NC(=O)CSC2CCCCC2)C1C (configuration not stated),i,-15%
O=C(Nc1ccccc1F)c1ccc(OCc2ccccc2)cc1,-21%,-22%
COc1ccc(C(=O)NC2CCc3ccccc32)cc1OC1CCN(C(C)C)CC1 (configuration not stated),-7%,-16%
CC1=NNC(=O)C(CC(=O)Nc2ccc(Cl)c(Cl)c2)C1 (configuration not stated),-7%,4%
CCOC(=O)CC(C)(C)/C(C)=N/Nc1ccc([N+](=O)[O-])cc1[N+](=O)[O-],-1%,-8%
O=C(Nc1ccc(N2CCOCC2)cc1)c1ccncc1,/,0%

5 records picked at random from the list so far, as already listed:
canonical_smiles,Vaccinia mCherry,VACV Venus inh
CC1CCCC(NC(=O)CSC2CCCCC2)C1C (configuration not stated),i,-15%
COc1cc(CN2CCNC(=O)C2CC(=O)NCCC2=CCCCC2)cc(OC)c1 (configuration not stated),i,-20%
CC1=NNC(=O)C(CC(=O)Nc2ccc(Cl)c(Cl)c2)C1 (configuration not stated),-7%,4%
COc1ccc(C(=O)NC2CCc3ccccc32)cc1OC1CCN(C(C)C)CC1 (configuration not stated),-7%,-16%
CCOC(=O)CC(C)(C)/C(C)=N/Nc1ccc([N+](=O)[O-])cc1[N+](=O)[O-],-1%,-8%
